From PubChem
StopGo FLuc – Primary qHTS Assay for Foot and Mouth Disease Virus Antivirals against NCGC Sytravon and CBC Compound Libraries: Firefly Luciferase Signal; AID 1745856, 2022; Potency, µM (top dose mostly 57.5 µM), for inactives: at the top dose signal change, negative = less light; HEK cells with a luciferase reporter of 2A StopGo recoding; 0.23% of 120,000 active; active = well fitted falling curve with a large enough effect; inconclusive = small, poorly fitted or top-dose-only effect; inactive = no such curve, though single readings can be large or run the other way; further: nearly all actives have a fitted effect of over 60% in size; overnight with compound
2A Renilla – Primary qHTS Assay for Foot and Mouth Disease Virus Antivirals against NCGC Sytravon and CBC Compound Libraries: Renilla Luciferase Signal | HEK cells with a luciferase reporter of 2A StopGo recoding | Potency, µM (top dose mostly 57.5 µM), inactives show top-dose signal change, negative = less light | 0.32% of 120,000 active | AID 1745857, 2022; active means well fitted falling curve with a large enough effect; inconclusive means small, poorly fitted or top-dose-only effect; inactive means no such curve, though single readings can be large or run the other way; further: nearly all actives have a fitted effect of over 55% in size; overnight with compound
* = called active by the depositor; ? = inconclusive; [ ] = remark or other dose. On the % scale 0 is the no-effect control and ±100 the full control effect; potency means the concentration at half of the fitted maximal effect. This is a subset, so the mix of outcomes need not match the whole.

1) O=C(CCNS(=O)(=O)c1cccc2nsnc12)Nc1ccc(F)cc1
2) Cc1csc(NC(=O)COc2cccc3ccccc23)n1
3) CCN(CC)CCNC(=O)c1c(C)oc2ncnc(N3CCOCC3)c12
4) Cc1ccc(-c2cnc(CCC(=O)N(C)CC(=O)Nc3ccccc3Br)o2)cc1C
5) CCOC(=O)COc1cc(O)cc2oc(-c3ccccc3)cc(=O)c12
6) CCCCOC(=O)c1nc2ccccc2nc1NCc1ccccc1
7) O=C(O)COc1cccc(NS(=O)(=O)c2ccc(Br)cc2)c1
8) N#Cc1ccc(/C=C/c2ccc(C#N)cc2)cc1
9) CCOC(=O)c1c(Nc2cc(C)cc(C)c2)nnc(-c2ccccc2)c1-c1ccccc1
10) COc1cc(OC)c(C2=CCN(C(=O)c3ccccc3OCc3noc(C)n3)CC2)c(OC)c1

assay / entry | 1 | 2 | 3 | 4 | 5 | 6 | 7 | 8 | 9 | 10
StopGo FLuc | -9% | 6% | -18% | 11% | 44%[activator] | 70%[activator] | 6% | 21% | 0% | -10%
2A Renilla | 37%[activator] | ? | -7% | -10% | 41%[activator] | 12% | 0% | 14% | 0% | 49%[activator]

11) CCC1CN(C(=O)NCc2ccc(C)cc2)c2cc(Cl)ccc2O1 (centres undefined)
12) Cc1cc(=O)n(CC(=O)NCCC(C)C)c2c1c(C)nn2C
13) Cc1cc(C)cc(NC(=S)NCCc2ccc(Cl)cc2)c1
14) Cc1cc(OCC(=O)NCC2(N3CCOCC3)CCCCC2)ccc1Cl
15) Cn1c(=O)c2c(nc(NCCc3ccccc3)n2C)n(C)c1=O
16) CCn1cc(C(=O)N2CCN(c3cccc(C(F)(F)F)c3)CC2)c2cc(OC)c(OC)cc2c1=O
17) Cc1ccc2nc(-c3ccc(NC(=O)c4cccc([N+](=O)[O-])c4C)cc3)oc2c1
18) Cc1ccc(CNC(=S)NC(C)C(C)(C)C)cc1 (centres undefined)
19) CCn1c(CSc2nccc(C)n2)nc2cc(NC(=O)c3cccc(Br)c3)ccc21
20) C=CCNC(=O)NC(=O)CNc1cc(C(F)(F)F)ccc1NC1CCCCC1

assay / entry | 11 | 12 | 13 | 14 | 15 | 16 | 17 | 18 | 19 | 20
StopGo FLuc | -12% | 1% | 19% | -22% | 2% | -8% | 88%[activator] | 2% | -85% | 24%
2A Renilla | 6% | -19% | 20% | -14% | -6% | 6% | -2% | 56%[activator] | ? | 19%

In another format: entries from further up.
11: CCC1CN(C(=O)NCc2ccc(C)cc2)c2cc(Cl)ccc2O1 (centres undefined)
  StopGo FLuc: -12%
  2A Renilla: 6%
12: Cc1cc(=O)n(CC(=O)NCCC(C)C)c2c1c(C)nn2C
  StopGo FLuc: 1%
  2A Renilla: -19%
13: Cc1cc(C)cc(NC(=S)NCCc2ccc(Cl)cc2)c1
  StopGo FLuc: 19%
  2A Renilla: 20%

(cont.)
21) COCCNc1nc2c(c(=O)n(C)c(=O)n2C)n1CCCc1ccccc1
22) CCOC(=O)c1ccc(N2CCN(CC)CC2)c(NC(=O)CSc2ccc(Cl)cc2)c1
23) OC(COCc1ccccc1F)Cn1nnc(-c2ccccc2)n1 (centres undefined)
24) O=C1CSc2ccc(C(=O)NCCc3cccnc3)cc2N1
25) Cc1ccc(SCC(=O)NCc2ccc(CS(N)(=O)=O)cc2)cc1C
26) COc1cc(C#N)ccc1OCc1ccccc1Br
27) CCCCOc1cccc(C(=O)N(Cc2ccc(C)o2)c2ccccn2)c1
28) CC(COc1ccc(OC(F)(F)F)cc1)CN1CCC(C(O)(c2ccccc2)c2ccccc2)CC1 (centres undefined)
29) CCN(CC)c1cc(C)c2cc(NC(=O)c3cccc(OC)c3OC)ccc2n1
30) COc1ccc(S(=O)(=O)n2ccnc2)cc1C(C)(C)C

assay / entry | 21 | 22 | 23 | 24 | 25 | 26 | 27 | 28 | 29 | 30
StopGo FLuc | -7% | -13% | 19% | -3% | 3% | 222%[activator] | ? | -9% | 32%[activator] | -6%
2A Renilla | -8% | 2% | 28% | 0% | -5% | 16% | 46%[activator] | -9% | 3% | 61%[activator]

31) CCc1nc2nc(-c3cccc(OC)c3)cc(=O)n2[nH]1
32) O=C(NC1CC(=O)N(c2cccc(F)c2)C1)C1CCCC1 (centres undefined)
33) CC(OC(=O)c1cccc(S(=O)(=O)N(C)C)c1)C(=O)c1ccccc1 (centres undefined)
34) O=C(COC(=O)c1cccnc1Nc1cccc(C(F)(F)F)c1)NCc1ccc2c(c1)OCO2
35) CCc1ccc2c(c1)c1nc(C)sc1n2S(=O)(=O)c1ccc(C)cc1
36) COc1ccccc1NC(=O)Nc1nc(CC(=O)NCCC(C)C)cs1
37) COc1cccc(C(=O)CC(CC(=O)c2cccc(OC)c2)c2ccccc2C(=O)O)c1
38) BrCC1CCCNC1 (centres undefined)
39) COc1cc(Cl)c(C)cc1NC(=O)C1CCN(c2nc3ccccc3n3cccc23)CC1
40) C(=Nc1ccc(Nc2ccccc2)cc1)c1ccc(OCc2ccccc2)cc1

assay / entry | 31 | 32 | 33 | 34 | 35 | 36 | 37 | 38 | 39 | 40
StopGo FLuc | 0% | -13% | 0% | 0% | 19% | 59%[activator] | 16% | -1% | 10% | 0%
2A Renilla | -2% | -6% | 19% | 12% | 93%[activator] | 8% | -1% | 4% | -17% | 0%

An excerpt of these results, in markdown.
| entry | SMILES | StopGo FLuc | 2A Renilla |
| --- | --- | --- | --- |
| 34 | O=C(COC(=O)c1cccnc1Nc1cccc(C(F)(F)F)c1)NCc1ccc2c(c1)OCO2 | 0% | 12% |
| 40 | C(=Nc1ccc(Nc2ccccc2)cc1)c1ccc(OCc2ccccc2)cc1 | 0% | 0% |

Along the list, quoted from above:
Compounds 15 to 22 in StopGo FLuc, in turn: 2%, -8%, 88%[activator], 2%, -85%, 24%, -7%, -13%
Compounds 15 to 22 in 2A Renilla, in turn: -6%, 6%, -2%, 56%[activator], ?, 19%, -8%, 2%

Additional results follow:
41) C/C(=N\NC(=O)Cc1cccc2ccccc12)c1cccc(NC(=O)c2ccc(Cl)cc2)c1
42) CC(=O)N1c2ccc(S(=O)(=O)NCC3CCC(C(=O)Nc4ccc(C)c(C)c4)CC3)cc2CC1C (centres undefined)
43) O=C(Nc1cccc(S(=O)(=O)N2CCOCC2)c1)c1nc(-c2ccccc2)n(-c2ccccc2)n1
44) O=C(CSc1nc2c(oc3ccccc32)c(=O)n1-c1ccccc1F)Nc1ccccc1
45) CCN(CC)CCOc1ccc(C(O)(Cc2ccc(Cl)cc2)c2ccc(C)cc2)cc1 (centres undefined)
46) Cc1nc(S(=O)(=O)N2CCN(c3ccccc3F)CC2)cn1C
47) O=C(Nc1ccc(Br)cc1)c1cc(Br)cc(Br)c1O
48) COc1ccc(N2CCN(C(=O)c3cc(S(=O)(=O)N4CCC(C)CC4)cn3C)CC2)cc1
49) N#CC1(NC(=O)CSc2c(Cl)cccc2Cl)CCCCC1
50) Cc1ccc(CNCCC2=CCCCC2)s1

assay / entry | 41 | 42 | 43 | 44 | 45 | 46 | 47 | 48 | 49 | 50
StopGo FLuc | 0% | -24% | 7% | -16% | -26% | -7% | -4%[11.5 µM] | 90%[activator] | 8% | 12%
2A Renilla | 132%[activator] | 1% | 16% | 4% | -9% | -4% | -4% | 34%[activator] | 87%[activator] | -1%

51) CN(C)C(=O)Cc1ccc(C(F)(F)F)cc1
52) O=C(Nc1cccc(C(F)(F)F)c1)c1nc2ccccc2nc1N1CCOCC1
53) COCC(=O)n1nc(NCc2ccc(F)cc2)nc1NCc1ccc(F)cc1
54) CCN(CC)S(=O)(=O)c1ccc(N)c(N)c1
55) O=C(c1ccco1)N1CCN(c2nc3c(Cl)cccc3s2)CC1
56) CCN(C(=O)c1ccc2c(=O)n3c(nc2c1)CCCCC3)c1cc(C)ccc1C
57) COP(=O)(OC)c1nc(-c2ccc([N+](=O)[O-])cc2)oc1NCc1ccc(F)cc1
58) c1coc(CN2CCNCC2)c1
59) Cc1ccc(CSc2ccc(-c3cccs3)nn2)cc1
60) O=C(O)c1ccc2nc(-c3cc4cccc(O)c4oc3=O)[nH]c2c1

assay / entry | 51 | 52 | 53 | 54 | 55 | 56 | 57 | 58 | 59 | 60
StopGo FLuc | 1% | 7% | -5% | 8% | 0% | 28% | 9% | 2% | 166%[activator] | ?
2A Renilla | 2% | 13% | 5% | 9% | ? | -14% | 41%[activator] | 8% | 33%[activator] | 12%

Quoted at random: 3 records from the list, in no set order.
1) O=C(CCNS(=O)(=O)c1cccc2nsnc12)Nc1ccc(F)cc1
15) Cn1c(=O)c2c(nc(NCCc3ccccc3)n2C)n(C)c1=O
30) COc1ccc(S(=O)(=O)n2ccnc2)cc1C(C)(C)C

assay / entry | 1 | 15 | 30
StopGo FLuc | -9% | 2% | -6%
2A Renilla | 37%[activator] | -6% | 61%[activator]

(next part)
61) Cc1ccc(CNC(=O)c2ccc3cc[nH]c3c2)cc1
62) O=C(NC1CCCCC1)C1CCC(Cn2cnnn2)CC1 (centres undefined)
63) N#CC(C(=O)/C=C/c1ccccc1)C(=O)Nc1ccccc1Cl (centres undefined)
64) COc1ccc(C(CNC(=O)COc2cc(C)cc(C)c2)N2CCCCC2)cc1 (centres undefined)
65) CCCC(C)NC(=O)C1CCN(C(=O)c2ccc(C(F)(F)F)cc2)CC1 (centres undefined)
66) CCN1CCN(C(=O)N[C@@H](C(=O)N[C@@H]2C(=O)N3C(C(=O)O)=C(CSc4nnnn4C)CS[C@H]23)c2ccc(O)cc2)C(=O)C1=O
67) Cc1cc(NC(=O)CCNS(=O)(=O)c2cccc3nsnc23)ccc1Br
68) COc1ccccc1NC(=O)C(=O)NCC(c1cccnc1)N1CCc2ccccc2C1 (centres undefined)
69) CC1CCCCN1Cc1nc2c(c(=O)n(C)c(=O)n2C)n1CC(N)=O (centres undefined)
70) COc1ccc(N(Cc2cccs2)C(=O)COc2cc(C)c(Cl)c(C)c2)cc1

assay / entry | 61 | 62 | 63 | 64 | 65 | 66 | 67 | 68 | 69 | 70
StopGo FLuc | 202%[activator] | 4% | 128%[activator] | -27% | 27% | -11%[11.5 µM] | 12% | -11% | -4% | -5%
2A Renilla | 221%[activator] | -9% | 42%[activator] | 2% | 10% | -3% | 81%[activator] | -9% | -5% | -8%

71) CC(C)N(C(=O)CSc1ncnc2ccccc12)c1ccccc1
72) N#C/C(=C/c1cn(Cc2ccc(F)cc2)c2ccccc12)C(=O)Nc1cccc(Cl)c1
73) O=C(c1ccccc1F)N(Cc1cccc2[nH]ccc12)C1CC1
74) Oc1ccc(Nc2nc(-c3ccc(O)cc3)cs2)cc1
75) Cc1nn(Cc2ccccc2)c(C)c1NC(=O)Nc1cccc(Cl)c1
76) COc1ccc(/C(C)=C(\C#N)c2nc3ccccc3[nH]2)cc1
77) CCCCNC(=O)CN1CCN(c2ccc(C(=O)O)cc2NS(=O)(=O)c2cccs2)CC1
78) CCOc1ccccc1-c1noc(CN2CCCc3c(C(=O)NC(C)C)cccc32)n1
79) O=C(c1cccnc1)N1CCc2cc(NS(=O)(=O)c3ccccc3)ccc21
80) Cc1nnc(NC(=O)NCC(C)(C)N2CCCC(C)C2)s1 (centres undefined)

assay / entry | 71 | 72 | 73 | 74 | 75 | 76 | 77 | 78 | 79 | 80
StopGo FLuc | -6% | ? | -4% | 320%[activator] | -2% | 165%[activator] | 10% | -2% | 15% | -11%
2A Renilla | 1% | ? | 122%[activator] | 77%[activator] | -7% | 68%[activator] | 5% | 13% | 187%[activator] | 3%

81) CCN1CCN(CCCNC(=O)c2ccc3c(c2)sc2nc(-c4ccc(OC)cc4)cn23)CC1
82) Cc1cccc(NC(=O)CSc2nc(=O)n(CCN3CCOCC3)c3c2CCC3)c1
83) CCN1C(=O)c2ccccc2Sc2ccc(NC(=O)c3ccc(C#N)cc3)cc21
84) Cc1cc(C)cc(Nc2nc(NC3CCCCCC3)nc3c2cnn3-c2ccccc2)c1
85) CCOc1ccc(-n2ccn3c(SC(CC)C(=O)Nc4cc(C)ccc4C)nnc3c2=O)cc1 (centres undefined)
86) Cc1c(-c2ccccc2)c(=O)oc2ccc(OS(=O)(=O)c3ccc(F)cc3)cc12
87) CCOc1ccc(CNCc2cccs2)cc1OCC
88) COc1ccccc1C(=O)Nc1cc2c(cc1N1CCCC1)n(C)c(=O)c(=O)n2C
89) Cc1c(-c2ccccc2)sc2ncn(CC(=O)NC3CCCc4ccccc43)c(=O)c12 (centres undefined)
90) O=c1c2ccccc2nc(-c2ccc(Cl)cc2)n1CCCOc1ccccc1F
91) CCOC(=O)c1scc(-c2ccccc2)c1S(=O)(=O)Nc1ccccc1
92) N#Cc1nc(C2CC2)oc1N1CCN(Cc2ccc(F)cc2Cl)CC1

assay / entry | 81 | 82 | 83 | 84 | 85 | 86 | 87 | 88 | 89 | 90 | 91 | 92
StopGo FLuc | 66%[activator] | -21% | -7% | -7% | -14% | 0% | 6% | -18% | 98%[activator] | 28% | 13% | ?
2A Renilla | 8% | -11% | -2% | -3% | -6% | ? | -2% | -13% | 9% | -11% | 73%[activator] | ?
